Screening results: PubChem BioAssay, several laboratories
RecA intein inh: Mtb RecA intein splicing inhibition; cell-free RecA intein splicing, fluorescence; P9WHJ3; inhibition, %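 (about 9 µM by stock and volumes)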; hit rate 0.75% among 290,000; in the data active means inhibition above about 30%;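 further: 0% = vehicle wells and 100% = reference inhibitor control wells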
Target sequence (P9WHJ3 whole entry, looked up): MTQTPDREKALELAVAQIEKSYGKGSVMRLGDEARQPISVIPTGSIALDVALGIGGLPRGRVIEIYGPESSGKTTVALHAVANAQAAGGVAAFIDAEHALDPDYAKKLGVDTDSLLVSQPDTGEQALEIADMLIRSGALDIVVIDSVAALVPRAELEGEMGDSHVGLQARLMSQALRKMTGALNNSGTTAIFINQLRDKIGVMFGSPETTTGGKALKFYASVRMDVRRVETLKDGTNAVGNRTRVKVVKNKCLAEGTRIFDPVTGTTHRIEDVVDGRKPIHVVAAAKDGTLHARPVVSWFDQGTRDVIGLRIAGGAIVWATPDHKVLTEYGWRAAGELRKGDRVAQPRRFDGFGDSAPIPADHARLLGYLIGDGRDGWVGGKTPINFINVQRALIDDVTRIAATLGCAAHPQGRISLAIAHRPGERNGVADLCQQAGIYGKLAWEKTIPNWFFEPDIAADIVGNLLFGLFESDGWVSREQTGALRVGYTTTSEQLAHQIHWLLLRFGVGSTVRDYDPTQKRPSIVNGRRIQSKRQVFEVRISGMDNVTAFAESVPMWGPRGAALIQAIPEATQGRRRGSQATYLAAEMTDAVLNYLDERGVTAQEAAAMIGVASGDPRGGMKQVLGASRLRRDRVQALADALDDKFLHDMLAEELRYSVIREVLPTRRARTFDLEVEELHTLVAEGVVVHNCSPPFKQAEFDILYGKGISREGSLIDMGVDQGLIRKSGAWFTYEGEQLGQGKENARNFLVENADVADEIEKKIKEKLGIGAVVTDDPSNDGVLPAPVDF
Arbovirus inh: antivirals against arbovirus infection; inhibition, % at 10 µM; hit rate 0.37% among 200,000; arbovirus infection cell-based antiviral screen;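 active means inhibition from about 30%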;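 further: bluetongue infection of BSR cells; cell survival read as ATP light after 72 h; 0% = infected wells without compound and 100% = uninfected wells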
YopH inh: inhibitors of Yersinia enterocolitica YopH tyrosine phosphatase. fluorescence Ex485/Em525. inhibition, %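 (about 10 µM by stock and volumes)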. hit rate 0.16% among 140,000;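 active means inhibition of 50% or more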;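 further: controls were vehicle for no effect and minimum signal wells for full effect; inactives centre near -20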
Mtb betalactam: beta-lactam sensitization of Mtb H37Rv. inhibition, % at 25 µM. M. tuberculosis H37Rv growth with meropenem, percent inhibition; hits of this screen are not shown here. hit rate 0.27% among 330,000;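 active means about 74% or more and at least 40 points above the plate without the antibiotic, then above 30% in a dose series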;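 further: growth measured after seven days incubation then overnight dye step; 0% = bacteria only wells and 100% = bacteria with antibiotic; twin plates without the antibiotic show which effects depend on it; some results filed as inactive read as strong as hits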
Mtb growth: M. tuberculosis H37Rv growth inhibitors, H37Rv strain (AID 1626); M. tuberculosis H37Rv growth inhibition; higher % means a stronger effect; one-dose inhibition, % at 10 µM; IC50 in µM for titrated hits; hit rate 0.95% among 220,000;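 active means confirmed in a dose series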;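 further: bacteria incubated seven days before Alamar blue readout; 0% = bacteria only wells and 100% = bacteria with antibiotic wells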
Arbovirus inh repeat: further read-out of Arbovirus inh, marked with its call; inhibition, %; measured here: 10K subset replicate screen; many hits read low in the repeat;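 first of two repeat runs on a subset; 0% = infected and 100% = uninfected wells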
An asterisk follows results filed as active. A portion of the library; count on the stated rates, not on these rows.

How did COCc1cc(C)nc2sc(C(=O)NN)c(-n3cccc3)c12 do in these assays?
RecA intein inh: -2.5; Arbovirus inh: 1; Mtb betalactam: 1; Mtb growth: -7%

Results for FC(F)(F)c1ccnc(N2CCN(Cc3cnc(-c4ccccc4)[nH]3)CC2)c1 ?
RecA intein inh: 4.0; Mtb betalactam: 2; Mtb growth: -10%

Results for N#CCOc1ccc(C2=NO[C@@H]3[C@@H]4C[C@@H]([C@H]5C(=O)N(c6ccc7c(c6)OCO7)C(=O)[C@@H]45)[C@H]23)cc1 ?
RecA intein inh: 1.6; Arbovirus inh: -2; YopH inh: 0; Mtb betalactam: -3; Mtb growth: -8%

How did Cc1[nH]nc(Nc2ccc(O)cc2)c1[N+](=O)[O-] do in these assays?
RecA intein inh: -4.9; Arbovirus inh: -7; Mtb betalactam: -8; Mtb growth: -15%

Results for Cc1c(CN2CCC(CO)(Cc3ccccc3)CC2)c2ccccc2n1C ?
RecA intein inh: -1.9; Arbovirus inh: -26; Mtb betalactam: -9; Mtb growth: 8%

Results for Oc1ccc(Br)cc1/C=N/Nc1ncc(-c2ccccc2)cn1 ?
RecA intein inh: -2.8; Arbovirus inh: -18; Mtb betalactam: 50; Mtb growth: 4%

What do the screens show for `COc1ccc(OC)c(CNS(=O)(=O)c2cc(-c3cc(C)no3)ccc2OC)c1`?
RecA intein inh: 1.3; Mtb betalactam: -6

What do the screens show for `CN(C)CCCNC(=O)c1ccc(-c2nc(-c3ccc(Cl)cc3)cs2)cc1`?
RecA intein inh: 7.1; Arbovirus inh: -42; YopH inh: -38; Mtb betalactam: 81; Mtb growth: 15%

Results for Cc1cc2c(=O)n(CC(=O)N3CCN(c4ccccc4)CC3)cnc2s1 ?
Arbovirus inh: 5; YopH inh: -31; Mtb betalactam: 3; Mtb growth: -23%

What do the screens show for `O=C(O)c1ccccc1C(=O)c1ccc(-c2ccccc2)cc1`?
RecA intein inh: -1.6; Mtb betalactam: 0

Results for COc1ccc(-n2ncc(Cl)c(Cl)c2=O)cc1 ?
RecA intein inh: 18; Arbovirus inh: -28; Mtb growth: 5%

How did COc1cccc(-c2coc3cc4oc(=O)c(CC(=O)O)c(C)c4cc23)c1 do in these assays?
RecA intein inh: -1.8; Mtb betalactam: -1

How did O=C(CSc1nc(O)cc(=O)[nH]1)N1c2ccccc2CCc2ccccc21 do in these assays?
RecA intein inh: -2.6; Mtb betalactam: 2; Mtb growth: -6%

What do the screens show for `COc1ccc(-c2nnc(-c3cc4ccccc4oc3=O)o2)cc1`?
RecA intein inh: -9.7; Arbovirus inh: 7; YopH inh: -32; Mtb betalactam: 8; Mtb growth: 8%

Results for N#C/C(=C/c1ccc2c(c1)OCO2)C(=O)NCCc1c[nH]c2ccccc12 ?
RecA intein inh: 19; Arbovirus inh: -17; YopH inh: -35; Mtb betalactam: -10; Mtb growth: -7%

Looked up by compound from the list above, 5 records:
How did COc1cccc(-c2coc3cc4oc(=O)c(CC(=O)O)c(C)c4cc23)c1 do in these assays?
RecA intein inh: -1.8; Mtb betalactam: -1

Results for N#CCOc1ccc(C2=NO[C@@H]3[C@@H]4C[C@@H]([C@H]5C(=O)N(c6ccc7c(c6)OCO7)C(=O)[C@@H]45)[C@H]23)cc1 ?
RecA intein inh: 1.6; Arbovirus inh: -2; YopH inh: 0; Mtb betalactam: -3; Mtb growth: -8%

How did COCc1cc(C)nc2sc(C(=O)NN)c(-n3cccc3)c12 do in these assays?
RecA intein inh: -2.5; Arbovirus inh: 1; Mtb betalactam: 1; Mtb growth: -7%

How did Cc1[nH]nc(Nc2ccc(O)cc2)c1[N+](=O)[O-] do in these assays?
RecA intein inh: -4.9; Arbovirus inh: -7; Mtb betalactam: -8; Mtb growth: -15%

What do the screens show for `COc1ccc(-c2nnc(-c3cc4ccccc4oc3=O)o2)cc1`?
RecA intein inh: -9.7; Arbovirus inh: 7; YopH inh: -32; Mtb betalactam: 8; Mtb growth: 8%

(listing goes on)
What do the screens show for `O=C(O)CCCCCNc1nc(=S)[nH]c2ccccc12`?
RecA intein inh: -1.1; Arbovirus inh: -1; YopH inh: -40; Mtb betalactam: -11; Mtb growth: -11%

Results for C/C(=N\NC(=O)c1cc(C)nc2ccccc12)c1ccc([N+](=O)[O-])cc1 ?
RecA intein inh: -0.8; Arbovirus inh: 1; Mtb betalactam: -8; Mtb growth: -6%

What do the screens show for `O=C(NCC(=O)N(c1cccnc1)C(C(=O)NCc1ccco1)c1ccccc1)c1ccco1` (centres undefined)?
RecA intein inh: 0.3; Arbovirus inh: 1; YopH inh: -25; Mtb betalactam: -8; Mtb growth: -3%

What do the screens show for `COC(=O)[C@@]1(Cc2ccc(OC)cc2)[C@H]2c3cc(C(=O)N4CCCC4)n(CCO)c3C[C@H]2CN1C(=O)c1ccccc1`?
Arbovirus inh: 5; YopH inh: -31; Mtb betalactam: -13; Mtb growth: 1%

Results for COc1ccc(S(=O)(=O)N2CCCCC2)cc1C(=O)N1CCCCCC1 ?
RecA intein inh: -0.1; Mtb betalactam: -2

Results for O=C(Nc1ccccc1N1CCCC1)c1cc2ccccc2o1 ?
RecA intein inh: 9.7; Arbovirus inh: 2; YopH inh: 23; Mtb betalactam: 97

What do the screens show for `CCc1ccc(/C=C2\SC(=S)N(CCCC(=O)Nc3ccccc3C(=O)O)C2=O)cc1`?
RecA intein inh: 24; Mtb betalactam: 3

What do the screens show for `CCCCOC(=O)Nc1nc2ccc([N+](=O)[O-])cc2s1`?
RecA intein inh: 0.9; Arbovirus inh: -5; Mtb betalactam: 8; Mtb growth: -8%

Results for CCOC(=O)CC1(C)OCC(C[N+]2(C)CCCCC2)O1 (centres undefined) ?
RecA intein inh: 1.3; Arbovirus inh: 13; Mtb betalactam: 2; Mtb growth: 21%

What do the screens show for `CCOc1cc(CNC(C)C)c(Cl)cc1OCC(=O)NCCc1ccccc1`?
RecA intein inh: -2.4; Arbovirus inh: -5; YopH inh: 7; Mtb betalactam: 81; Mtb growth: 7%

How did Cc1ccc(C(=O)Oc2ccc(Br)cc2C(=S)N2CCOCC2)cc1 do in these assays?
RecA intein inh: 7.8; Mtb betalactam: 4

What do the screens show for `C=CCSC(=C(C#N)C#N)c1cc2c([nH]1)CCCC2`?
RecA intein inh: 70*; Arbovirus inh: -43; YopH inh: -3; Mtb betalactam: 23; Mtb growth: 2%

Results for CCNS(=O)(=O)c1ccc(NC(=O)Nc2cccc(C(F)(F)F)c2)cc1 ?
RecA intein inh: -3.4; Arbovirus inh: -29; YopH inh: 22; Mtb betalactam: 99; Mtb growth: 56%

How did COc1ccc(-c2cc(=O)oc3c(C)c(OCC(=O)N[C@@H](Cc4ccc(O)cc4)C(=O)O)ccc23)cc1 do in these assays?
RecA intein inh: 0.0; Mtb betalactam: 2

Results for O=C(NCCCN1CCCC1=O)c1cccc(NS(=O)(=O)c2ccccc2)c1 ?
RecA intein inh: -2.7; Mtb betalactam: -6

What do the screens show for `COc1ccc(S(=O)(=O)Cc2ccc(C(=O)NCc3cccs3)o2)cc1`?
RecA intein inh: 1.9; Arbovirus inh: 6; YopH inh: -34; Mtb betalactam: -5; Mtb growth: -10%; Arbovirus inh repeat: 3

Results for COC(=O)[C@]1(Cc2ccccc2)N[C@H](c2ccc(-c3cc(C(C)=O)cs3)cc2)[C@@H]2C(=O)N(C)C(=O)[C@@H]21 ?
RecA intein inh: -4.0; Mtb betalactam: 15

How did Cc1ccc(N(CC(=O)N2CCOCC2)S(C)(=O)=O)cc1 do in these assays?
RecA intein inh: 1.0; Arbovirus inh: 2; Mtb betalactam: 0; Mtb growth: 1%

Results for O=C(NCc1cccc(Br)c1)C1CC(c2cc(C(F)(F)F)cc(C(F)(F)F)c2)=NO1 (centres undefined) ?
RecA intein inh: -0.9; Mtb betalactam: -11; Mtb growth: 5%

Results for O=C(C(NS(=O)(=O)c1cccs1)c1ccccc1)N1CCN(c2ccccc2)CC1 (centres undefined) ?
RecA intein inh: 1.5; Arbovirus inh: -6; YopH inh: -20; Mtb betalactam: 6; Mtb growth: 0%

How did Cc1ccc(CN2C(=O)C(C)Oc3ccccc32)cc1 (centres undefined) do in these assays?
RecA intein inh: 5.5; Arbovirus inh: -5; Mtb betalactam: 1; Mtb growth: 4%

How did CC(=O)NCCc1nc2ccccc2n1CCCCOc1ccccc1 do in these assays?
RecA intein inh: 2.5; Mtb betalactam: 0

How did Cc1ccc(S(=O)(=O)N2CCC(=O)N(C(COCc3cccc(C(F)(F)F)c3)C(C)C)CC2)cc1 (centres undefined) do in these assays?
RecA intein inh: 0.0; Arbovirus inh: -27; YopH inh: -14; Mtb betalactam: 36; Mtb growth: 6%

What do the screens show for `CCC1(C)Cc2ccccc2C(=S)N1` (centres undefined)?
RecA intein inh: -3.3; Arbovirus inh: 4; Mtb betalactam: 2; Mtb growth: -1%

What do the screens show for `CCN(CC)S(=O)(=O)c1cc(OC)ccc1N=Nc1ccc(O)c2ncccc12`?
RecA intein inh: 2.9; Mtb betalactam: 3

Results for O=C(Cn1cnc2ccccc2c1=O)N1CCc2ccccc2C1 ?
RecA intein inh: -0.4; Arbovirus inh: 8; Mtb betalactam: -11; Mtb growth: -7%

What do the screens show for `CCOCCCNC(=O)C(NC(=O)CNC(=O)c1ccccc1)c1ccccc1` (centres undefined)?
RecA intein inh: -2.9; Arbovirus inh: 3; YopH inh: -5; Mtb betalactam: 1; Mtb growth: -2%

Results for Cc1ccc(S(=O)(=O)Nc2ccc3[nH]c(=O)[nH]c3c2)c(C)c1 ?
RecA intein inh: -4.3; Arbovirus inh: 16; Mtb betalactam: 1; Mtb growth: 3%

How did CCOc1cc(C(c2c(C)[nH][nH]c2=O)c2c(C)[nH][nH]c2=O)ccc1OCc1ccc([N+](=O)[O-])cc1 do in these assays?
RecA intein inh: 99*; Arbovirus inh: -15; YopH inh: 0; Mtb betalactam: -13; Mtb growth: -3%

How did O=S(=O)(NCc1ccccc1Cl)c1cnc[nH]1 do in these assays?
RecA intein inh: 0.9; Arbovirus inh: 2; YopH inh: 10; Mtb betalactam: 0; Mtb growth: 4%

What do the screens show for `Cc1cc2ccccc2n1CCNC(=O)C1CC1`?
RecA intein inh: -4.0; Arbovirus inh: 2; Mtb betalactam: -4

What do the screens show for `O=C(NC1CCCCC1)C1CCN(S(=O)(=O)c2cccc3nsnc23)CC1`?
RecA intein inh: 5.2; Arbovirus inh: 1; YopH inh: -33; Mtb betalactam: 2; Mtb growth: -9%

How did O=C(O)C(Cc1ccccc1)n1cccc1 (centres undefined) do in these assays?
RecA intein inh: -0.6; Arbovirus inh: 0; YopH inh: -39; Mtb betalactam: 3; Mtb growth: 5%

Results for CC(C)(C)c1ccc(C(=O)NC(=S)Nn2cnnc2)cc1 ?
RecA intein inh: -2.5; Arbovirus inh: -8; YopH inh: -25; Mtb betalactam: -12; Mtb growth: 2%

How did CCOC(=O)Nc1nnc(-c2ccc(OC)c(OC)c2)s1 do in these assays?
RecA intein inh: 1.6; Arbovirus inh: 3; YopH inh: 2; Mtb betalactam: 23; Mtb growth: -2%

How did Cc1cc(C(F)(F)F)c2c(=O)[nH]c(=O)n(Cc3ccccc3)c2n1 do in these assays?
RecA intein inh: 2.1; Arbovirus inh: 8; YopH inh: -40; Mtb betalactam: -7; Mtb growth: 3%

What do the screens show for `O=C(c1cc(-c2cccs2)on1)N1CCOCC1`?
RecA intein inh: 0.9; Arbovirus inh: 0; YopH inh: -17; Mtb growth: -16%

Results for Cc1onc(-c2ccccc2)c1C(=O)Nc1nnc(COc2ccc(Cl)cc2)s1 ?
RecA intein inh: 11; Arbovirus inh: 15; YopH inh: 22; Mtb betalactam: 99

How did CC1=[N+](CC(=O)NC(C)(C)C)CCc2ccccc21 do in these assays?
RecA intein inh: 0.1; Arbovirus inh: -2; YopH inh: -20; Mtb betalactam: 4; Mtb growth: 2%

How did C=CCn1c(=O)c(CCC(=O)Nc2ccc(N3CCOCC3)cc2)nc2cc(C(F)(F)F)ccc21 do in these assays?
RecA intein inh: 1.8; Mtb betalactam: 0

How did COC(=O)C1=C(CN2CCSCC2)NC(=O)NC1c1cc(C)ccc1C (centres undefined) do in these assays?
RecA intein inh: -9.6; Arbovirus inh: -6; YopH inh: -162; Mtb betalactam: 1; Mtb growth: 3%

What do the screens show for `CCc1ccc(CNC(=O)C2CCCN(c3nn4c(=O)cc(C)nc4s3)C2)cc1` (centres undefined)?
RecA intein inh: -0.6; Mtb betalactam: -3

Results for Cc1ccccc1C(=O)N1CCCC(CCC(=O)N2CCN(c3ccccn3)CC2)C1 (centres undefined) ?
RecA intein inh: 1.0; Mtb betalactam: -1

How did NC(=O)COc1ccc(=O)n(-c2ccccc2)n1 do in these assays?
RecA intein inh: -1.6; Arbovirus inh: 4; YopH inh: -11; Mtb betalactam: -2; Mtb growth: -2%; Arbovirus inh repeat: 4

Results for O=C1CCC(c2ccccc2)(C2CCN(Cc3ccccc3)CC2)C(=O)N1 (centres undefined) ?
RecA intein inh: 3.0; Mtb betalactam: 3
